Compound activity: PubChem BioAssay, Broad Institute
Ecoli rRNA inh = inhibits bacterial ribosomal RNA function over humanized ribosomes. actives 1.6% (n = 350,000). GFP signal change (wild-type ribosome), % (test concentration not listed). E. coli WT GFP vs humanized-ribosome RFP mutants, fluorescence, 24 h; stronger effect = lower value; DMSO median 0, no signal -100. AID 720706;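 active means significant combined selectivity score with lowered wild-type GFP, culture density cut under 30%, mutant RFP and density less affected; inactive means any of these conditions unmet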; further: one replicate is shown; some compounds called inactive have numbers as strong as hits
RanGTP-Imp inh = inhibitors of RanGTP-importin-beta interaction, primary screen, biochemical, FRET, CFP-Ran, YFP-importin-beta, homogeneous. cell-free CFP-Ran/YFP-importin-beta FRET ratio. inhibition, % (no concentration beside the values). actives 1.1% (n = 300,000). AID 2216;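 active means most replicates above 15%; inconclusive means exactly half above 15%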;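 further: 0% = DMSO wells and 100% = Ran loaded with GDP instead of GTP; wells of about 40 µL received 100 nL stock; the first replicate is given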
MLL AF4-AF9 inh = blocks AF4 peptide binding to human AF9. P42568. AlphaScreen, biotin-AF4 peptide binding to FLAG-AF9. inhibition, % at 10 µM. actives 0.47% (n = 350,000);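 active means every replicate reaching a set inhibition limit, whatever the replicate mean, cut at about 25% in these data; inconclusive means mean inhibition reaches that limit but some replicates miss it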;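 further: 0% = plate neutral control median and 100% = total signal loss; the record names both 10 and 1 µM as test concentration; the first replicate is given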
Target sequence (P42568 whole entry, looked up): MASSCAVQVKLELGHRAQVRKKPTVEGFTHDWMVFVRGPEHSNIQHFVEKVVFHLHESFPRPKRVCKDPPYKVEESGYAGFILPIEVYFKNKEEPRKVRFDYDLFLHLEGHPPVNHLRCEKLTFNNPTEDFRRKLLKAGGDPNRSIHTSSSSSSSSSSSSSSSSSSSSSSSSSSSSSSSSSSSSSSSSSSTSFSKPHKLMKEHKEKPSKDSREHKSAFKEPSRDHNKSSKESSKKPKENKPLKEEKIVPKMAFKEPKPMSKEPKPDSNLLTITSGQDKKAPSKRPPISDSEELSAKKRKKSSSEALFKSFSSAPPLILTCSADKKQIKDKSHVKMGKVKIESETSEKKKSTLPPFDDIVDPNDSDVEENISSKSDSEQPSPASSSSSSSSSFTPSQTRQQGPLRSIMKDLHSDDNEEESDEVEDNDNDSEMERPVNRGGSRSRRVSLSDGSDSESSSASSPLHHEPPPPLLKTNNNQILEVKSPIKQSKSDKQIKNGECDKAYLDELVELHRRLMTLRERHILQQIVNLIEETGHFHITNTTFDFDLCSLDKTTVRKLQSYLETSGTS
FGF22 binding = shifts melting point of recombinant human FGF22; Q9HCT0; recombinant FGF22 thermal shift, SYPRO orange fluorescence; percent of sucrose octasulfate shift, DMSO zero; calls only at 9.99 µM; actives 1.5% (n = 340,000); AID 651658;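 active means melting point raised past a set limit in the mean and every replicate; inconclusive means no clear call; three in four hits are not shown here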
Target sequence (Q9HCT0 whole entry, looked up): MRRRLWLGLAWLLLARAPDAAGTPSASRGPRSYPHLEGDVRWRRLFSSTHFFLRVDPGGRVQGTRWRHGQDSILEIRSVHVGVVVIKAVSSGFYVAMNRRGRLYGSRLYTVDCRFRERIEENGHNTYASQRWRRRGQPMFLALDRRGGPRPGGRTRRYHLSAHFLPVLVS
T cruzi inh = T. cruzi replication inhibition | T. cruzi beta-gal in NIH3T3, luminescence, 90 h | inhibition, % (no concentration beside the values) | actives 1.4% (n = 300,000) | AID 1885;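 active means mean inhibition across valid replicates above about 55%, limit read from the data; inconclusive means mean below that limit but half or more replicates reach it; inactive means mean below it, under half of replicates reach it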;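 further: signal also drops with host cell toxicity which is not excluded here; 0% = plate median of DMSO wells and 100% = zero luminescence signal; higher percent means less beta-gal luminescence so fewer parasites; stock transfer was 50 nL into about 50 µL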
Calb FLC = C. albicans growth modulation with fluconazole; actives 0.57% (n = 300,000); growth inhibition, % (no concentration beside the values); C. albicans CaCi-2 (fluconazole-resistant clinical isolate) + fluconazole, Alamar Blue growth, 48 h;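 active means most replicates above 75%; inconclusive means exactly half above 75%; inactive means most below 75%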;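 further: all wells also contain fluconazole at 8 µg/ml as a sub-toxic cotreatment; 0% = median of DMSO wells and 100% = median of geldanamycin control wells; wells of about 8 µL received 7.5 nL stock; the first replicate is given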
Beta apoptosis = blocks beta cell apoptosis. INS-1E cytokine-induced death, ATP luminescence, 48 h; percent of positive-control rescue, neutral wells zero. protection from apoptosis, % (test concentration not listed). actives 0.8% (n = 300,000);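 active means all replicates at 75% or more, or half of them and the mean; inconclusive means half reach 75% but not the mean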;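 further: 0% = cytokine-treated negative control wells and 100% = positive control rescue; higher means more ATP so stronger rescue from cytokine killing; wells of about 40 µL received 100 nL stock; the first replicate is given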
ALR inh = blocks human ALR sulfhydryl oxidase activity; AID 485317; actives 3.8% (n = 290,000); inhibition, % (test concentration not listed); purified ALR, DTT oxidation, H2O2 HRP-luminol luminescence; P55789;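 active means mean and each replicate at 75% or more; inconclusive means only one of the two met; inactive means neither met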;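 further: stock transfer was 7.5 nL into about 7.5 µL; 0% = neutral wells and 100% = wells with inactivated enzyme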
Target sequence (P55789 whole entry, looked up): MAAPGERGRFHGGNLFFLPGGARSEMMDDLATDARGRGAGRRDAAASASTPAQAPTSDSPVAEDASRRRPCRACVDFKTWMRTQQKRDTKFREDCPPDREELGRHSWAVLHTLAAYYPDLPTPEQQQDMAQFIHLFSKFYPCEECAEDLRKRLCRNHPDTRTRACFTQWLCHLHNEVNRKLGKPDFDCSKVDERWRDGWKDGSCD
Ecoli rRNA inh OD600 = recorded beside Ecoli rRNA inh, whose call it bears; OD600 change, %; measured here: OD600 growth;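 optical density of the mix in the first replicate; 0 = DMSO median and -100 = no signal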
Ecoli rRNA inh RFP = second read-out of Ecoli rRNA inh, no call of its own (marks repeat the call); RFP signal change, %; measured here: RFP humanized mutant strains;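 first replicate; 0 = DMSO median and -100 = no signal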
* marks the source's active call; other numbers are inactive results; i = inactive; ? = inconclusive; nt = not tested or not shown.

The first 2 entries, ahead of the listing:
SMILES	Ecoli rRNA inh	Ecoli rRNA inh OD600	Ecoli rRNA inh RFP	RanGTP-Imp inh	MLL AF4-AF9 inh	FGF22 binding	T cruzi inh	Calb FLC	Beta apoptosis	ALR inh
CCn1c(Cc2ccccc2)nnc1SCC(=O)NC(C)(C)C	8	7	-4.2	0.2	7.9	i	-6	-8	nt	nt
CCCc1ccc(-c2ccc(-c3noc(-c4ccncc4)n3)cc2)nc1	4	7	0.9	0.3	-1.6	i	3	5	9	1

Main list, repeating the preview:
SMILES	Ecoli rRNA inh	Ecoli rRNA inh OD600	Ecoli rRNA inh RFP	RanGTP-Imp inh	MLL AF4-AF9 inh	FGF22 binding	T cruzi inh	Calb FLC	Beta apoptosis	ALR inh
CCn1c(Cc2ccccc2)nnc1SCC(=O)NC(C)(C)C	8	7	-4.2	0.2	7.9	i	-6	-8	nt	nt
CCCc1ccc(-c2ccc(-c3noc(-c4ccncc4)n3)cc2)nc1	4	7	0.9	0.3	-1.6	i	3	5	9	1
Cc1ccc(NC(=O)N2CCC(C(=O)Nc3ccc(C)cc3C)CC2)cc1	nt	nt	nt	-4.2	nt	nt	-10	2	1	-4
O=C(NCc1ccc2c(c1)OCO2)c1cnc2n(c1=O)CCS2	4	3	-3.3	6.3	-5.5	i	-1	-4	nt	-8
COC(=O)Cn1ncc(N2CC(C)OC(C)C2)c(Cl)c1=O (stereo not drawn)	5	10	0.3	0.2	0.2	i	-1	-2	3	-15
CC(C)CN(C(=O)COC(=O)CNC(=O)c1ccc(Cl)cc1)C1CCS(=O)(=O)C1 (stereo not drawn)	13	3	-0.5	4.1	-2.5	i	-12	-14	-3	-3
NC(=O)COC(=O)c1cc(=O)[nH]c2ccccc12	13	6	-3.1	6.2	-3.9	i	-9	-2	-4	-1
CCCc1cc(=O)n2[nH]c(C)c(-c3ccc(OC)cc3)c2n1	-12	-12	-4.7	2.9	4.8	i	-5	10	-10	27
Cc1cccc(/C(N)=N/OC(=O)CCCN2C(=O)c3ccccc3C2=O)c1	nt	nt	nt	1.3	nt	nt	-6	3	5	0
CC(Sc1nc2ccccc2[nH]1)C(=O)NC1CCCCC1C (stereo not drawn)	1	-12	2.4	-1.3	-2.0	i	9	-17	0	-2
CCOC(=O)C1CCN(c2cc(=O)n(-c3ccccc3Cl)c(=O)[nH]2)CC1	nt	nt	nt	59*	nt	nt	4	7	3	17
Cc1cccc(C(C(=O)NC2CCCCC2)N(C(=O)c2csnn2)C2CC2)c1 (stereo not drawn)	6	-2	1.4	0.6	-1.0	i	0	19	-9	0
Cc1cc(NC(=O)CSc2nc(-c3cccnc3)ccc2C#N)no1	nt	nt	nt	-3.4	nt	nt	12	-1	-1	-1
CC(C)NC(=O)CCN1C(=O)c2ccccc2Sc2ncccc21	6	8	-0.1	-5.7	-1.5	i	-2	-3	-5	-1
CC(=O)c1cc(C(=O)N2CCc3c([nH]c4ccccc34)C2CC(C)C)[nH]n1 (stereo not drawn)	-30	-26	-1.6	5.7	?	i	-2	22	5	10
Clc1ccc(-c2ccc(/C=N/Nc3cc(N4CCOCC4)nc(N4CCOCC4)n3)o2)cc1	nt	nt	nt	?	nt	nt	54	23	7	-10
Cc1ccc(/C=C/C(=O)Nc2cc(=O)n(C)c(=O)n2C)o1	21	0	-0.3	-0.4	-1.3	i	-6	17	3	nt
COc1cc(C(=O)N/C(=C\c2cn(C)c3ccccc23)C(=O)NCCN2CCOCC2)cc(OC)c1OC	-15	-22	11	1.9	-5.5	i	-25	-5	-6	7
O=[N+]([O-])/C(C=Nc1ccccc1O)=C\Nc1ccccc1O	-7	2	11	3.1	14	i	-11	0	nt	nt
O=C(Cc1cccs1)NCCc1cn2ccccc2n1	5	11	0.9	-0.5	-4.6	i	-4	4	-10	-9
O=C(O)c1ccc(CSc2nnnn2C2CCCCC2)cc1	nt	nt	nt	0.8	nt	nt	3	-2	-2	-4
Cc1cc(C)nc(SCC(=O)NC2=NC(=O)C(C)S2)n1 (stereo not drawn)	2	-3	0.3	8.2	-2.5	i	-13	-13	-1	-10
COc1ccc(-c2nn(-c3ccccc3)cc2C(=O)N2CCN(S(=O)(=O)c3cccc(F)c3)CC2)cc1	4	6	1.4	?	-1.0	i	29	-10	6	10
C=CCOc1c(Cl)cc(CNn2cn[nH]c2=S)cc1OC	-11	-15	-5.7	3.4	-4.5	i	-5	2	-6	31
CC(C(=O)N1CC2(C)CC1CC(C)(C)C2)N1C(=O)c2ccccc2C1=O (stereo not drawn)	nt	nt	nt	-0.3	nt	nt	-5	nt	-5	-2
Cc1nn(C(=O)c2ccco2)c(C)c1Sc1ccc([N+](=O)[O-])cc1	nt	nt	nt	-1.4	nt	nt	-10	4	-6	-5
COc1cc(NC(=O)c2ccc(Br)o2)c(C(=O)O)cc1OC	nt	nt	nt	0.4	nt	nt	-2	-4	-2	3
C=CCN1C(=O)c2ccc(C(=O)N(C)CC(=O)Nc3cccc(F)c3)cc2C1=O	11	10	3.1	3.1	-0.9	i	-13	5	-3	-2
Cc1cc(O)cc2c(=O)c3ccccc3sc12	11	2	0.9	?	-6.3	i	14	-3	3	1
Cc1ccc(NC(=S)NNC(=O)c2ccco2)cc1	nt	nt	nt	2.5	nt	nt	-15	28	-2	59

One compound at a time, from the list above:
O=C(O)c1ccc(CSc2nnnn2C2CCCCC2)cc1 across the screens: Ecoli rRNA inh: nt; Ecoli rRNA inh OD600: nt; Ecoli rRNA inh RFP: nt; RanGTP-Imp inh: 0.8; MLL AF4-AF9 inh: nt; FGF22 binding: nt; T cruzi inh: 3; Calb FLC: -2; Beta apoptosis: -2; ALR inh: -4
Cc1ccc(/C=C/C(=O)Nc2cc(=O)n(C)c(=O)n2C)o1 across the screens: Ecoli rRNA inh: 21; Ecoli rRNA inh OD600: 0; Ecoli rRNA inh RFP: -0.3; RanGTP-Imp inh: -0.4; MLL AF4-AF9 inh: -1.3; FGF22 binding: i; T cruzi inh: -6; Calb FLC: 17; Beta apoptosis: 3; ALR inh: nt
O=[N+]([O-])/C(C=Nc1ccccc1O)=C\Nc1ccccc1O across the screens: Ecoli rRNA inh: -7; Ecoli rRNA inh OD600: 2; Ecoli rRNA inh RFP: 11; RanGTP-Imp inh: 3.1; MLL AF4-AF9 inh: 14; FGF22 binding: i; T cruzi inh: -11; Calb FLC: 0; Beta apoptosis: nt; ALR inh: nt

Remaining list, next part
SMILES	Ecoli rRNA inh	Ecoli rRNA inh OD600	Ecoli rRNA inh RFP	RanGTP-Imp inh	MLL AF4-AF9 inh	FGF22 binding	T cruzi inh	Calb FLC	Beta apoptosis	ALR inh
CN(C)c1ccc(C(O)P(=O)(OCc2ccccc2)c2ccc(N(C)C)cc2)cc1 (stereo not drawn)	12	10	15	1.0	8.5	i	5	2	3	16
COc1cc(/C=C/C(=O)OCC(=O)NC(=O)NC2CCCCC2)ccc1OC(F)F	-1	-2	-1.2	7.6	-1.9	i	-4	-3	-7	-1
COc1cccc(CC(=S)N2CCOCC2)c1	14	10	-8.0	2.1	-5.3	i	-8	17	-2	-9
Cc1cc[n+](-c2nc([O-])sc2/C=N/Nc2ccc([N+](=O)[O-])cc2)cc1	14	14	-0.8	0.6	3.7	i	-6	-18	-8	18
Cc1nc2ccc(C(=O)Nc3cccc([N+](=O)[O-])c3)cc2s1	11	9	3.6	-0.4	-1.8	i	-32	-5	6	-20
O=C(CCCCCN1C(=O)[C@@H]2Cc3ccccc3CN2C1=O)NCCc1ccccc1	0	3	1.1	0.0	-2.8	i	6	0	-3	-2
Cc1ccc2[nH]c3c(c2c1)CN(C(=O)CN1CCN(c2cccc(C)c2C)CC1)CC3	nt	nt	nt	-14	nt	nt	34	10	-8	-5
Cc1nc2ccccc2n1C1CCN(CC(=O)NCc2ccc(F)cc2)CC1	-7	-9	-8.1	1.9	5.1	i	13	1	1	-9
CNc1nc(-c2ccc3c(c2)CCN3C(=O)CC(C)(C)C)c(C)s1	-1	-3	0.0	1.5	-4.2	i	5	-4	-2	44
CC1(C)C(=O)OC(/C=C\c2ccccc2)C(C)(C)C1=O (stereo not drawn)	-2	-11	-1.2	?	-1.0	i	14	-4	2	-12
Cn1cc(CN2CCCC(C(=O)c3cccs3)C2)c(-c2cccc(Cl)c2)n1 (stereo not drawn)	-25*	-6.7*	6.2*	-2.2	6.1	i	-4	6	7	-46
CCOC(=O)N1CCC(NC(=O)c2cnn3cccnc23)CC1	nt	nt	nt	1.7	nt	nt	-5	-15	-2	-6
CSc1ccccc1C(=O)NCCCOC(C)C	16	8	-0.8	4.6	-0.2	i	11	0	5	-4
O=C(N/N=C/C=C/c1ccccc1[N+](=O)[O-])c1ccncc1	7	2	-1.8	-4.8	-1.2	i	-24	0	-7	-16
O=C(CCc1ccccc1)Nc1ccc2ccccc2n1	4	1	-0.6	?	-8.4	i	26	4	2	-6
COc1ccc(N(CC(=O)Nc2ccc3c(c2)OCO3)S(=O)(=O)c2c(C)nn(C)c2C)cc1	-4	-6	-2.1	3.7	2.3	i	10	4	-9	7
NC(=O)COC(=O)CCSc1ccc(Cl)cc1	7	10	1.1	-1.2	-3.0	i	-7	28	-4	-11
O=C(O)CCNC(=O)C12CC3CC(CC(C3)C1)C2	7	6	-0.9	-0.9	-2.3	i	4	2	-3	-8
Cc1cccc(C)c1NC(=O)C1(N(Cc2ccco2)C(=O)CC2NC(=O)NC2=O)CCCCC1 (stereo not drawn)	8	11	2.8	-0.7	nt	nt	8	-3	-4	2
CC(/C=N/NC(=O)c1cnccn1)=C\c1ccco1	20	19	2.4	-1.4	0.5	i	21	-2	-18	-16
O=C/C(=C\Nc1ccc(Cl)cn1)c1nc2ccccc2o1	nt	nt	nt	2.5	nt	nt	-20	5	6	-3
O=C(N1CCCCCC1)N1CCN(S(=O)(=O)N2CCOCC2)CC1	nt	nt	nt	1.7	nt	nt	-1	-5	-3	1

The list is partial; count on the stated rates, not on these rows.
